Bioassay records (PubChem BioAssay)
YopH PTP inh – YopH (Yersinia) phosphatase inhibition. fluorescence Ex485/Em525. inhibition, %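 (about 10 µM by stock and volumes)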. 140,000 compounds, 0.16% hits;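 active means inhibition of 50% or more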;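 further: controls were vehicle for no effect and minimum signal wells for full effect; inactives centre near -20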
Mtb growth – M. tuberculosis H37Rv growth inhibitors, H37Rv strain (AID 1626) | one-dose inhibition, % at 10 µM; IC50 in µM for titrated hits | 220,000 compounds, 0.95% hits | M. tuberculosis H37Rv growth inhibition; higher % means a stronger effect;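 active means confirmed in a dose series; inconclusive means inhibition above 80% but not taken into the dose series; inactive means below 80% or under 30% at every dose of the series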;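 further: bacteria incubated seven days before Alamar blue readout; 0% = bacteria only wells and 100% = bacteria with antibiotic wells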
RecA intein inh – blocks M. tuberculosis RecA intein splicing; P9WHJ3; cell-free RecA intein splicing, fluorescence; inhibition, %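 (about 9 µM by stock and volumes)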; 290,000 compounds, 0.75% hits; in the data active means inhibition above about 30%; inconclusive means no clear call, values can overlap the other calls;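 further: 0% = vehicle wells and 100% = reference inhibitor control wells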
Target sequence (P9WHJ3 whole entry, looked up): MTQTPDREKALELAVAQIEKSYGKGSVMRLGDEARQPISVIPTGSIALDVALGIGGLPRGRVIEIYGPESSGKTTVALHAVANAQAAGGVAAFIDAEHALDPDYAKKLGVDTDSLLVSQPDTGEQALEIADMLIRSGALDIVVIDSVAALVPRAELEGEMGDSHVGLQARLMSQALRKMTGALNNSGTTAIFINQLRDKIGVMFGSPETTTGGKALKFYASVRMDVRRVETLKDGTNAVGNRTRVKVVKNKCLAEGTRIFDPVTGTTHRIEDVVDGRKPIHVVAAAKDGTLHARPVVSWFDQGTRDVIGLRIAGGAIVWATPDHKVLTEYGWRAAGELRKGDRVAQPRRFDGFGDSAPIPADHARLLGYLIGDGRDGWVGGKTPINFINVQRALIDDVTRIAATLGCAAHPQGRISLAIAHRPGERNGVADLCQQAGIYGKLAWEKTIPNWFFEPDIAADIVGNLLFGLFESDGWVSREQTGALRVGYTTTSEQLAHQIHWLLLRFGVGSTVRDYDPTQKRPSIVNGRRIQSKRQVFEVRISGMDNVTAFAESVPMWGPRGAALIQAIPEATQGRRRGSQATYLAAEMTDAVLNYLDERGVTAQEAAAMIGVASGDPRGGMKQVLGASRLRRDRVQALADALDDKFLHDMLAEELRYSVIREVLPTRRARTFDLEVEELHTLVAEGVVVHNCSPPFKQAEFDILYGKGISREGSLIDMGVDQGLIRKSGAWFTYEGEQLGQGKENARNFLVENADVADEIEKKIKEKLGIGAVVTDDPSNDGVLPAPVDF
Mtb betalactam – beta-lactam sensitization of Mtb H37Rv; M. tuberculosis H37Rv growth with meropenem, percent inhibition; hits of this screen are not shown here; inhibition, % at 25 µM; 330,000 compounds, 0.27% hits;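 active means about 74% or more and at least 40 points above the plate without the antibiotic, then above 30% in a dose series; inconclusive means first-round hits that could not be retested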;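 further: growth measured after seven days incubation then overnight dye step; 0% = bacteria only wells and 100% = bacteria with antibiotic; twin plates without the antibiotic show which effects depend on it; some results filed as inactive read as strong as hits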
Arbovirus anti – blocks arbovirus infection; 200,000 compounds, 0.37% hits; arbovirus infection cell-based antiviral screen; inhibition, % at 10 µM; AID 1251;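 active means inhibition from about 30%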;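 further: bluetongue infection of BSR cells; cell survival read as ATP light after 72 h; 0% = infected wells without compound and 100% = uninfected wells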
Arbovirus anti repeat – recorded beside Arbovirus anti, whose call it bears; inhibition, %; measured here: 10K subset replicate screen; many hits read low in the repeat;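 first of two repeat runs on a subset; 0% = infected and 100% = uninfected wells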
* = called active by the depositor; ? = inconclusive; . = no result given.

SMILES	YopH PTP inh	Mtb growth	RecA intein inh	Mtb betalactam	Arbovirus anti	others
O=C(NNC(=O)c1cc(-c2ccccc2)nn1-c1ccccc1)c1ccccc1	-29.2	9.4%	7.2	32.7	-25.6
COc1ccccc1/C=N/NC(=O)CSc1ccc2ccccc2n1	.	.	2.9	9.8	.
CC(=O)OC1COC(n2ccc3cc([N+](=O)[O-])ccc32)C(OC(C)=O)C1OC(C)=O (stereo unspecified)	-13.8	1.1%	3.4	-3.6	6.5
CCC(C)N(C)C1CCN(C(=S)Nc2cccc(OC)c2)CC1 (stereo unspecified)	.	8.2%	4.6	-5.0	-1.3
COCc1cc(N2CCN(c3ccccc3F)CC2)nc(-c2ccccc2)n1	.	-8.9%	14.6	4.8	7.5
O=C(COc1ccc2c3c(c(=O)oc2c1)CCCC3)NCCCN1CCOCC1	.	.	0.5	-7.7	.
O=C(Nc1cccc(C(=O)N2CCCC2)c1)c1ccccc1Cl	-0.1	2.7%	-1.0	5.3	2.1
CCC(C)n1c(O)c(C(c2ccccn2)c2c(O)n(C(C)CC)c(=S)[nH]c2=O)c(=O)[nH]c1=S (stereo unspecified)	-20.9	-3.5%	2.1	12.2	-0.9
Cc1c(N=C2SCC(=O)N2/N=C\c2ccc(Br)cc2)c(=O)n(-c2ccccc2)n1C	-21.6	2.9%	5.0	1.7	-5.6
O=C(O)CCCn1cc(NC(=O)c2c(F)cccc2F)cn1	.	6.3%	4.3	-3.9	1.9
CC1(C)CC(=O)C(C=NC(CCC(N)=O)C(=O)O)=C(O)C1 (stereo unspecified)	-28.1	-2.9%	1.8	10.2	7.7
CCCCC(=O)Nc1cc(C)c2c(=O)oc3ccccc3c2n1	-29.2	13.7%	-1.1	-5.0	-19.8
CC(=O)Nc1ccc(C(=O)OCC(=O)Nc2ccccc2Sc2ccccc2)cc1	-27.2	5.5%	27.1	4.0	4.6
CCn1c2ccc(F)cc2c2nnc(SCCN3CCCCC3)nc21	.	.	-0.1	8.6	.
CCS(=O)(=O)Nc1cccc(-c2nc3cccnc3s2)c1	.	-7.8%	0.4	-7.7	.
COc1ccc(OC)c(NC(=O)Nc2c(O)ccc3ccccc23)c1	.	.	-1.1	-1.4	.
COc1cccc(C(=O)Nc2c3c(nn2-c2ccc(Cl)cc2)CS(=O)(=O)C3)c1OC	.	.	-3.0	7.2	.
C/C(=N/Nc1nc(-c2ccccc2)cc(-c2ccccc2)n1)c1ccc(N)cc1	-9.7	1.9%	.	.	-13.5
Cc1cc(C)nc(SCC(=O)N/N=C/c2cccnc2)n1	.	.	-0.4	5.4	.
Cc1nonc1CN(C)C(=O)CC1C(=O)NCCN1Cc1ccccc1F (stereo unspecified)	.	.	-2.8	-4.1	.
CCOC(=O)C1C(=O)NC(SCC(N)=O)=C(C#N)C1c1ccccc1OCC (stereo unspecified)	-25.0	-4.0%	-6.3	2.5	-2.6
Cc1ccc(C)c(NC(=O)CSc2n[nH]c(-c3ccncc3)n2)c1	1.4	-6.9%	-17.8	-5.9	5.2
Cc1ccc(CN(CC(=O)N/N=C/c2ccccc2[N+](=O)[O-])S(=O)(=O)c2ccc(C)cc2)cc1	-15.0	7.8%	0.3	8.7	-3.4
O=C(CSc1ccc2ccccc2c1)Nc1nc2ccccc2[nH]1	-13.5	33.0%	2.8	54.6	-9.4
Cc1ccc(/C([O-])=C(/C(=S)NCCN2CCOCC2)[n+]2ccccc2)cc1[N+](=O)[O-]	.	5.7%	2.5	-12.0	-1.5
O=C(Cc1ccccc1)NCC(=O)OCC(=O)c1ccc(Cl)c([N+](=O)[O-])c1	-49.3	-6.5%	0.8	3.0	-2.9
Cc1cccc(C)c1NC(=O)CNC(=O)C12CC3CC(CC(O)(C3)C1)C2	.	.	0.1	-0.6	.
COc1ccc(OC)c(S(=O)(=O)Nc2ccc3[nH]c(=O)[nH]c3c2)c1	.	.	-1.6	-1.7	.
CC(=O)c1ccc(OCC(=O)N2CCCC(N(C)Cc3ccccc3)C2)cc1 (stereo unspecified)	.	.	-0.5	0.6	.
CN1/C(=C\C=C2\N=C(c3ccc(F)cc3)OC2=O)C(C)(C)c2ccccc21	-2.3	11.5%	-5.7	8.2	12.0
Cc1ccc(C(=O)COC(=O)CNC(=O)Cc2ccccc2)cc1	.	.	0.5	-0.9	.
Cc1ccc(NCc2nnc(SCC(=O)NCc3ccco3)n2CC2CCCO2)c(C)c1 (stereo unspecified)	-30.1	-10.4%	-0.3	-9.5	-2.7
O=C(CN1C(=O)NC2(CCCC2)C1=O)Nc1ccccc1	.	.	1.5	5.3	.
CCC1CCCCN1CCCNC(=O)CS(=O)Cc1nc(-c2ccc(OC)c(OC)c2)oc1C (stereo unspecified)	.	.	-0.8	-4.0	.
O=C(c1ccc(OCC2CCCO2)cc1)N1CCN(c2ccccc2)CC1 (stereo unspecified)	-20.4	0.5%	0.5	-4.6	4.2
CN(C)S(=O)(=O)c1cccc(NC(=O)COC(=O)c2c[nH]c(=O)[nH]c2=O)c1	.	-1.9%	0.2	-11.0	12.8
COc1ccc([C@@H]2CC(=O)c3c(O)cc(O[C@@H]4OC(CO[C@@H]5OC(C)[C@H](O)[C@H](O)C5O)[C@@H](O)[C@@H](O)C4O)cc3O2)cc1O (stereo partly specified)	.	.	-5.1	-5.4	.
C=CCn1c(SCC(=O)NC2CCCCC2)nnc1-c1sc(N)nc1C	-36.0	7.0%	-2.5	-8.8	-0.9
O=C(COc1ccc(Cl)cc1)NCCc1cnc[nH]1	.	.	-2.6	8.8	.
CCn1c(SCC(=O)N2CCOCC2)nc(O)cc1=O	.	-1.3%	-0.7	-3.6	5.4	Arbovirus anti repeat=4.7
COC12C(COC(N)=O)C3=C(C(=O)C(C)=C(N)C3=O)N1CC1C2N1C (stereo unspecified)	.	?	6.5	100.1	.
Cc1ccc2nc(CCc3ccc(N)cc3)[nH]c2c1	.	.	3.4	-5.2	.
Cc1ccc(-c2ccc(/C=N/NC(=O)c3ccccc3O)o2)cc1	.	?	-1.7	95.4	.
S=C(Nc1cccc(Cl)c1)N1CCN(Cc2ccccc2)CC1	-12.1	3.0%	3.0	-0.1	13.6
C(=N\N1CCN(c2ccccn2)CC1)/c1ccccn1	.	-11.8%	-0.7	-11.2	.
Cc1ccc(N/N=C(\C#N)C(=N)N2CCCCC2)cc1	.	-11.7%	3.6	4.3	.
O=C(Nc1cc(C(F)(F)F)ccc1-n1cncn1)c1ccc(Cl)cc1	-6.1	6.2%	-1.6	6.0	-8.2
O=C(NC1CC1)c1ccc2c(c1)N(Cc1ccccc1)CCS2	.	.	-2.4	-4.4	.
Nc1nc(CCl)nc(N(c2ccccc2)c2ccccc2)n1	.	74.5%	16.4	99.2	.
Cc1ccc(NC(=O)CCN2CCC(C)CC2)cc1	.	.	-0.3	-3.9	.
N#CC1=C(N)n2c(s/c(=C\c3cccs3)c2=O)=C(C#N)C1c1cccs1 (stereo unspecified)	-8.8	7.7%	2.0	10.1	14.2
CCCC(c1nnnn1C(C)(C)C)N1CCN(c2ccccc2)CC1 (stereo unspecified)	.	-4.9%	2.8	1.9	-5.1
CC(C)(C#N)C(C)(C)c1nn[nH]n1	-36.7	-1.6%	0.8	-10.7	1.5
CCOc1ccc(CCNC(=O)CS(=O)Cc2nc(-c3ccc(C)cc3)oc2C)cc1 (stereo unspecified)	.	.	2.3	0.5	.
CCOc1ccc(CCNC(=O)COC(=O)c2nc3nc(C)cc(C)n3n2)cc1OCC	-21.0	-2.5%	1.5	-5.9	-7.8
O=C(Nc1ccc(-c2nc3ccccc3o2)c(O)c1)c1cc(-n2cnnc2)ccc1Cl	-6.2	7.8%	.	7.6	-0.4
Cc1cc(C)cc(NC(=O)c2ccc(NC(=O)c3ccco3)cc2)c1	.	.	-0.2	-14.2	.
O=c1c2c3nc4ccccc4nc3n(/N=C/c3ccccn3)c2ncn1-c1ccccc1	.	-5.2%	0.1	10.9	.
CCOC(=O)C(C)n1nc(-c2ccccc2)c2ccccc2c1=O (stereo unspecified)	.	2.1%	1.7	-3.9	-9.6
N#CC1=C(N)Oc2cc(N)ccc2C1C1CCCCC1 (stereo unspecified)	-33.2	8.5%	-36.6	-3.6	-17.9
Following part:
SMILES	YopH PTP inh	Mtb growth	RecA intein inh	Mtb betalactam	Arbovirus anti	others
CN(C)CCc1c[nH]c2ccc(C[C@H]3COC(=O)N3)cc12	.	-8.7%	-2.6	-3.5	.
CN1CCN(c2ncc(CN3C(=O)c4ccccc4C3=O)s2)CC1	.	-2.1%	-2.9	4.9	1.0
CC(=O)NC1(c2nnnn2CCOC(=O)Nc2ccc(Cl)cc2)CCCC1	.	-5.3%	-4.8	-1.8	0.7
CCOc1ccc(CCNC(=O)C2CCN(c3nnc(-n4cccc4)s3)CC2)cc1	-52.8	-4.1%	-1.1	1.6	5.3
O=C(Cn1c(=O)n(Cc2ccco2)c(=O)c2cc(Cl)ccc21)NCC1CCCO1 (stereo unspecified)	6.0	0.8%	-0.2	-6.6	4.6
Cc1cc(C)c2c(CN3CCN(Cc4ccccc4)CC3)cc(=O)oc2c1	.	.	-2.3	-6.2	.
O=S(=O)(c1ccc(NC(=S)NC2CC2)cc1)N1CCOCC1	.	-2.2%	-2.7	-0.3	0.8
CC(=O)Nc1ccc(C(=O)NNC(=O)c2cccc(C)c2)cc1	.	.	0.6	1.3	.
Cc1ccc(NC(=O)c2c(F)cccc2Cl)cc1NS(C)(=O)=O	.	-3.3%	-0.6	4.9	.
COc1ccc(OC)c(S(=O)(=O)N(C)CC(=O)O)c1	-28.8	-3.3%	0.9	3.0	2.8
N#C/C(=C/c1ccc(-c2ccc(S(N)(=O)=O)cc2)o1)C(=O)Nc1ccccc1	-8.0	-2.5%	-2.3	2.0	5.7
Cc1ccccc1Cn1ccc(NC(=O)CCSc2nc(-c3ccco3)cc(C(F)(F)F)n2)n1	-2.4	4.4%	10.2	-5.9	-4.4
O=C(O/N=C1/CCCc2occc21)c1ccc(Cl)cc1Cl	.	15.4%	-0.9	81.7	.
Cn1c(=O)c2[nH]c(N3CCCCC3)nc2n(C)c1=O	.	7.2%	-0.4	-6.0	.
CC(C)(C)c1ccc(C(=O)c2c[nH]c(C(=O)NCCCN3CCOCC3)c2)cc1	-3.2	-9.3%	5.2	0.1	18.6
COc1ccccc1NC(=O)C1=C(C)NC(=O)NC1c1ccccc1F (stereo unspecified)	-38.1	6.6%	.	3.0	2.2	Arbovirus anti repeat=1.1

In the list so far, these have an aryl methoxy group:
SMILES	YopH PTP inh	Mtb growth	RecA intein inh	Mtb betalactam	Arbovirus anti	others
COc1ccccc1/C=N/NC(=O)CSc1ccc2ccccc2n1	.	.	2.9	9.8	.
CCC(C)N(C)C1CCN(C(=S)Nc2cccc(OC)c2)CC1 (stereo unspecified)	.	8.2%	4.6	-5.0	-1.3
COc1ccc(OC)c(NC(=O)Nc2c(O)ccc3ccccc23)c1	.	.	-1.1	-1.4	.
COc1cccc(C(=O)Nc2c3c(nn2-c2ccc(Cl)cc2)CS(=O)(=O)C3)c1OC	.	.	-3.0	7.2	.
COc1ccc(OC)c(S(=O)(=O)Nc2ccc3[nH]c(=O)[nH]c3c2)c1	.	.	-1.6	-1.7	.
CCC1CCCCN1CCCNC(=O)CS(=O)Cc1nc(-c2ccc(OC)c(OC)c2)oc1C (stereo unspecified)	.	.	-0.8	-4.0	.
COc1ccc([C@@H]2CC(=O)c3c(O)cc(O[C@@H]4OC(CO[C@@H]5OC(C)[C@H](O)[C@H](O)C5O)[C@@H](O)[C@@H](O)C4O)cc3O2)cc1O (stereo partly specified)	.	.	-5.1	-5.4	.
COc1ccc(OC)c(S(=O)(=O)N(C)CC(=O)O)c1	-28.8	-3.3%	0.9	3.0	2.8
COc1ccccc1NC(=O)C1=C(C)NC(=O)NC1c1ccccc1F (stereo unspecified)	-38.1	6.6%	.	3.0	2.2	Arbovirus anti repeat=1.1

This is a subset. The share of hits here may be higher or lower than overall.
